# YopH inh: YopH tyrosine phosphatase inhibitors, primary screen, biochemical, fluorescence Ex485/Em525. 0.16% of 140,000 active. AID 898, 2007. inhibition, %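 (about 10 µM by stock and volumes)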;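 active means inhibition of 50% or more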;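 further: controls were vehicle for no effect and minimum signal wells for full effect; inactives centre near -20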
# Mtb bLac sens: beta-lactam sensitization of Mtb H37Rv, H37Rv | M. tuberculosis H37Rv growth with meropenem, percent inhibition; hits of this screen are not shown here | inhibition, % at 25 µM | 0.27% of 330,000 active;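 active means about 74% or more and at least 40 points above the plate without the antibiotic, then above 30% in a dose series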;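 further: growth measured after seven days incubation then overnight dye step; 0% = bacteria only wells and 100% = bacteria with antibiotic; twin plates without the antibiotic show which effects depend on it; some results filed as inactive read as strong as hits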
# Mtb growth: M. tuberculosis H37Rv growth inhibitors, H37Rv strain (AID 1626) | M. tuberculosis H37Rv growth inhibition; higher % means a stronger effect | inhibition, % at 10 µM; hits with a dose series show IC50 in µM | 0.95% of 220,000 active;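 active means confirmed in a dose series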;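 further: bacteria incubated seven days before Alamar blue readout; 0% = bacteria only wells and 100% = bacteria with antibiotic wells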
# RecA intein inh: Mtb RecA intein splicing inhibitors, primary screen, biochemical, fluorescence, HTS. cell-free RecA intein splicing. inhibition, %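 (about 9 µM by stock and volumes)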. AID 2221, 2009. 0.75% of 290,000 active; in the data active means inhibition above about 30%;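 further: 0% = vehicle wells and 100% = reference inhibitor control wells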
# Target sequence (P9WHJ3 whole entry, looked up): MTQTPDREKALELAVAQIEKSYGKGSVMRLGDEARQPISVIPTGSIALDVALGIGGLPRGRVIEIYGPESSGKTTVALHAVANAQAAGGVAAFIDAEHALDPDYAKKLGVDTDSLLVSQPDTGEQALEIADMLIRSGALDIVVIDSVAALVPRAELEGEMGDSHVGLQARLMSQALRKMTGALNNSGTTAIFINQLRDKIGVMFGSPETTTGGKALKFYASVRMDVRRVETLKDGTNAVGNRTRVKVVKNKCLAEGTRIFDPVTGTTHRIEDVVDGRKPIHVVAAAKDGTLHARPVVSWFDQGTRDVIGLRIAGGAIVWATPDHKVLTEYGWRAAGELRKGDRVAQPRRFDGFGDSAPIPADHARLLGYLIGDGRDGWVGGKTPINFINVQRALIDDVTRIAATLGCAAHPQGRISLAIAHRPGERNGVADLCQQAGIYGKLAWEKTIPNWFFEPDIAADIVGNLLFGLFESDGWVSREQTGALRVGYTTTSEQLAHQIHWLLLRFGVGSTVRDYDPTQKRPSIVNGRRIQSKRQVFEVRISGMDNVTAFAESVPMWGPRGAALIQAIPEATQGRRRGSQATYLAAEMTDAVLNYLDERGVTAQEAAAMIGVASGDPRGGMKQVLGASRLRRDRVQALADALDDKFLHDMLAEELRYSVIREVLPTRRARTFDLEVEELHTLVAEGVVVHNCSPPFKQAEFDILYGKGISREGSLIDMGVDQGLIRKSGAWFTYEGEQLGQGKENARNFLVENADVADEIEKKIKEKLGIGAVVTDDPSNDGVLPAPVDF
# Arbovirus inh: antivirals against arbovirus infection, primary screen, cell-based, full library, 10K replicate subset. arbovirus infection cell-based antiviral screen. inhibition, % at 10 µM. 0.37% of 200,000 active;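 active means inhibition from about 30%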;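 further: bluetongue infection of BSR cells; cell survival read as ATP light after 72 h; 0% = infected wells without compound and 100% = uninfected wells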
# Arbovirus inh repeat: second read-out of Arbovirus inh, no call of its own (marks repeat the call); inhibition, %; measured here: 10K subset replicate screen; many hits read low in the repeat;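 first of two repeat runs on a subset; 0% = infected and 100% = uninfected wells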
# Numbers without * were called inactive; . = not tested or not shown.
SMILES,YopH inh,Mtb bLac sens,Mtb growth,RecA intein inh,Arbovirus inh,others
CC(C)Cc1ccc(/C=C/C(=O)N2CCCCC2)cc1,.,4,12%,4.3,-9,
CCc1ccc(OCCCC(=O)Nc2ccc(S(=O)(=O)Nc3cc(C)nc(C)n3)cc2)cc1,.,2,.,0.1,.,
O=C(NN1C(=O)/C(=C/c2cccnc2)SC1=S)C(c1ccccc1)c1ccccc1,-23,-10,-3%,17,0,
CN(Cc1nc(-c2ccccc2)no1)C(=O)c1ccco1,.,0,.,-2.5,.,
CCCc1cc(C(=O)Nc2cc(OC)ccc2OC)cs1,.,-12,.,8.2,.,
Cc1ccc(N(CC(=O)NCc2ccc(F)cc2)S(=O)(=O)c2c(C)nn(C)c2C)cc1,.,-5,.,0.9,.,
S=c1oc(-c2ccncc2)nn1CCc1ccncc1,-18,3,-10%,-4.0,6,
O=C(NCCc1cccc(F)c1)C1CCN(S(=O)(=O)c2ccccc2)CC1,.,-3,.,-1.1,.,
CN(c1ccc(F)cc1)S(=O)(=O)c1ccc(Cl)c(C(=O)OCC(=O)NCc2ccco2)c1,.,2,-3%,6.1,4,
COc1ccc2cc(C3(C)NC(=O)N(CC(=O)NCC(F)(F)F)C3=O)ccc2c1 (configuration not stated),.,4,.,-3.4,.,
CCNC(=O)NC(C(=O)OC)C12CC3CC(CC(C3)C1)C2 (configuration not stated),-25,-3,6%,1.3,4,
Oc1ccc(CN2CCCCC2)c2cccnc12,-8,89,-6%,-7.1,-15,
C/C(Cl)=C\CNC(C)c1ccccc1 (configuration not stated),-31,-9,-9%,-0.5,0,
Cc1cc(C(=O)OCC(=O)NC(C)C)c2ccccc2n1,.,-3,1%,-3.1,.,
COc1ccc(C2NC(=S)NC(C)=C2C(=O)N2CCOCC2)cc1 (configuration not stated),.,5,-1%,-0.4,-3,
CNC(=S)NNC(=O)c1ccccc1Cl,.,-1,-5%,.,.,
Cc1cccc(N=C/C(C(=O)C(F)(F)F)=C(\O)c2ccco2)c1,-10,1,11%,-1.3,-3,
O=C(Cn1c2ccc(F)cc2c2nc3n(c(=O)c21)CCS3)NCC1CCCO1 (configuration not stated),.,-10,.,-0.3,.,
Fc1ccc(-c2cnc(-c3cccs3)o2)cc1,-41,4,1%,0.8,9,
CSCC[C@@H](CO)NC(=O)c1ccc2nc(C3CCCCC3)oc2c1,.,4,.,-3.0,.,
O=C1NC(=O)/C(=C\c2ccccc2OCc2ccccc2)S1,.,0,1%,9.1,13,
CCn1c(=O)c2sccc2n2c(CCCC(=O)NCc3cccnc3)nnc12,.,4,.,-3.7,.,
O=C(CN1CCN(C(=O)N2CCOCC2)CC1)Nc1cc(Cl)ccc1Cl,.,2,.,0.5,.,
Cc1nc(-c2ccccc2)sc1C(=O)CSc1ccc(F)cc1,-40,22,-11%,5.3,-11,
COCCNc1c2c(nc3ccccc13)CCC2,.,1,.,0.8,.,

# Compounds from the list above with an aryl methoxy group, in the order listed:
SMILES,YopH inh,Mtb bLac sens,Mtb growth,RecA intein inh,Arbovirus inh,others
CCCc1cc(C(=O)Nc2cc(OC)ccc2OC)cs1,.,-12,.,8.2,.,
COc1ccc2cc(C3(C)NC(=O)N(CC(=O)NCC(F)(F)F)C3=O)ccc2c1 (configuration not stated),.,4,.,-3.4,.,
COc1ccc(C2NC(=S)NC(C)=C2C(=O)N2CCOCC2)cc1 (configuration not stated),.,5,-1%,-0.4,-3,

# The list goes on.
SMILES,YopH inh,Mtb bLac sens,Mtb growth,RecA intein inh,Arbovirus inh,others
CC(Oc1ccccc1)c1nnc(N)s1 (configuration not stated),.,-1,-16%,-2.1,8,
Cc1c(-n2cc(C(=O)O)c(=O)c3cc(F)c(N4CCCC4)c(F)c32)c(=O)n(-c2ccccc2)n1C,.,8,4%,-4.2,4,Arbovirus inh repeat=-5
Cc1ccc(-n2c(SCC(N)=O)nc3c(c2=O)C2(CCCC2)Cc2ccccc2-3)cc1,-34,-1,1%,0.5,-33,
Cc1cc(C(=O)COC(=O)CCCN2C(=O)c3ccccc3C2=O)c(C)n1C,-43,-3,-7%,3.7,-1,
CCCNC(=O)NS(=O)(=O)c1cnccc1Sc1ccc(Cl)cc1,31,5,-11%,.,8,
O=C(Nc1ccc(F)cc1)C(c1ccccc1)N1CCN(S(=O)(=O)c2c(F)cccc2F)CC1 (configuration not stated),-30,-2,5%,6.8,-9,
COc1ccc(CC(=O)NC(=S)Nc2cccc(C)c2)cc1,.,-11,.,4.5,.,
CCOC(=O)c1ccccc1NC(=O)C1COc2ccccc2O1 (configuration not stated),-34,.,-2%,11,2,Arbovirus inh repeat=4
CC(C)CCN(C(=O)CCCSc1nc2ccccc2[nH]1)c1c(N)n(Cc2ccccc2)c(=O)[nH]c1=O,.,-10,.,1.8,.,
CCCCNC(=S)NNC(=O)c1ccc(Br)o1,-30,-7,1%,-1.2,5,
CCOC(=O)C(=CNc1ccccc1C)C(=O)OCC,-4,82,85%,-1.5,2,
O=C(NCc1ccccc1)NC1(C(=O)N2CCN(c3ccccc3)CC2)CCCCC1,-2,-6,5%,1.5,-5,
COc1ccc(CCNC(=O)CN2C(=O)COc3ccc(S(=O)(=O)N4CCCC4)cc32)cc1OC,.,0,.,1.6,.,
COc1ccc(Nc2nnc(Cc3ccc(Cl)cc3)c(=O)[nH]2)c(OC)c1,-26,-4,0%,8.1,-6,Arbovirus inh repeat=16
O=C(CSc1nnc2c(n1)[nH]c1ccccc12)OCc1ccccc1,-12,90,55%,2.6,5,
CC(C)CC(=O)Nc1ccnc(-c2ccncc2)n1,.,2,3%,1.2,6,
COc1ccc(NC(=O)Cc2ccc(Cl)cc2)cc1NC(=O)c1ccco1,-19,9,-1%,6.2,-10,
COc1ccc(OCC(=O)O/N=C(\N)Cc2cccs2)cc1,-16,4,11%,8.9,1,
Oc1ccc(-c2csc(Nc3ncccn3)n2)cc1O,.,.,8%,-0.1,-2,
COc1ccc(N2CCN(C(C)=C3C(=O)c4ccccc4C3=O)CC2)cc1,.,-5,3%,-1.1,-5,
COc1ccccc1-c1cc(C(=O)N2CCN(c3ccccc3)CC2)no1,.,3,.,-4.2,.,
Cc1ccccc1NC(=O)C(=O)NCCc1c[nH]c2ccccc12,.,-2,6%,1.5,5,
CCOC(=O)c1c(C)oc2c1c(CN1CCN(C(=O)OCC)CC1)c(O)c1ccccc12,-7,.,6%,0.5,-11,
COc1ccc(OCc2nnnn2-c2ccccc2)cc1,-31,-3,8%,1.2,-2,
CC(C(=O)O)n1ncc2ccccc2c1=O (configuration not stated),.,0,1%,5.1,.,
# (more compounds)
SMILES,YopH inh,Mtb bLac sens,Mtb growth,RecA intein inh,Arbovirus inh,others
COc1ccc(-c2cc(C(=O)NC3CCCC3)c3ccccc3n2)cc1,.,18,.,-0.9,.,
CCn1ncc([C@@H]2C[C@H]3CN(Cc4cccc(Cl)c4)C(=O)[C@]34CCCN24)c1C,.,0,7%,1.1,-3,
Cc1ccc(NC(=O)C2CC(=O)Nc3nc4ccccc4n32)c(C)c1 (configuration not stated),.,-3,-12%,-1.8,.,
COC(=O)C1=C(C)N(C2CCCC2)C(=O)C1(NC(C)=O)C(F)(F)F (configuration not stated),15,-9,-1%,-0.5,0,
Cc1ccc(S(=O)(=O)N2CCN(Cc3nc4sc(C)c(C)c4c(=O)[nH]3)CC2)cc1,-16,11,2%,0.4,-16,
O=C1CCCC2=C1C(c1ccccc1O)C1=C(CCCC1=O)O2,-24,-4,1%,0.0,1,
C/C(=N/NC(=O)CNC(=O)Cc1ccc(Cl)cc1)c1ccco1,.,-1,-7%,-0.3,.,
CCN(CC)S(=O)(=O)c1cccc(NC(=O)COC(=O)c2cc(C)oc2C)c1,0,-3,8%,.,5,
CCS(=O)(=O)C1=NN2C(=N)/C(=C\c3ccc(OC(=O)c4ccco4)cc3)C(=O)N=C2S1,.,80,.,33*,.,
O=C(Cn1c(NCCO)nc2ccccc21)c1ccco1,-26,5,0%,-1.1,-3,
Cc1ccccc1NC(=O)N1CCC(C(=O)c2ccc(F)cc2)CC1,.,-2,0%,-0.5,8,
CCCC(=O)c1cc(CP(=O)(OCC)OCC)oc1C,.,0,-15%,-2.1,.,
COc1ccc(CN2C(=O)c3ccccc3C2C(=O)NCCc2ccccc2)c(OC)c1 (configuration not stated),.,0,2%,-0.1,-1,
Cc1ccc(NC(=O)C(OC(=O)c2cc(C)oc2C)c2ccccc2)cc1 (configuration not stated),-9,-1,7%,-1.9,8,
Cc1ccc(S(=O)(=O)N2CCOCC2)s1,.,1,.,-0.5,.,
O=C(CCC(=O)c1cccs1)NNC(=O)c1cccc(Cl)c1,.,11,.,0.0,.,
O=C(O/N=C\c1ccc(N2CCOCC2)c([N+](=O)[O-])c1)c1ccccc1Cl,-5,87,.,3.6,15,
CCOc1cc2c(cc1C(C)(C)C)NC(=O)CS2,-18,36,7%,9.5,-11,
c1ccc(CSc2nnc(-c3ccco3)o2)cc1,.,77,12%,6.0,.,
CCS(=O)(=O)N1CCC(C(=O)NCCCN2CCC(Cc3ccccc3)CC2)CC1,-30,2,.,-0.3,-5,
CN(C)S(=O)(=O)c1cccc(C(=O)NCCOC(=O)c2cc(F)c(F)cc2Cl)c1,.,16,.,4.9,.,
Fc1ccc(-c2n[nH]c(=S)n2Cc2ccccc2)cc1,.,3,.,0.3,.,
Cc1ccc(C)c(NC(=S)NC2CC3CCCC(C2)N3CC(C)C)c1 (configuration not stated),-27,-3,0%,2.2,-6,
CC(C)CCNC(=O)CCCn1c(=O)[nH]c2ccc(Br)cc2c1=O,-20,3,-11%,-1.3,-8,
Fc1ccc(Oc2nc(-c3ccccn3)nc3ccccc23)cc1,.,92,2µM*,19,.,

# 4 entries drawn at random from the list so far:
SMILES,YopH inh,Mtb bLac sens,Mtb growth,RecA intein inh,Arbovirus inh,others
COc1ccc(CC(=O)NC(=S)Nc2cccc(C)c2)cc1,.,-11,.,4.5,.,
Cc1ccc(S(=O)(=O)N2CCN(Cc3nc4sc(C)c(C)c4c(=O)[nH]3)CC2)cc1,-16,11,2%,0.4,-16,
Cc1c(-n2cc(C(=O)O)c(=O)c3cc(F)c(N4CCCC4)c(F)c32)c(=O)n(-c2ccccc2)n1C,.,8,4%,-4.2,4,Arbovirus inh repeat=-5
CCOc1cc2c(cc1C(C)(C)C)NC(=O)CS2,-18,36,7%,9.5,-11,

# (cont.)
SMILES,YopH inh,Mtb bLac sens,Mtb growth,RecA intein inh,Arbovirus inh,others
CC(C)n1c(-c2ccc(N(C)C)cc2)nc2ccccc21,-4,81,4%,.,22,
COc1ccc(C2C3=C(CCCC3=O)N(CC(=O)O)C3=C2C(=O)CCC3)cc1,.,-3,.,-112,.,
COc1ccc(N2C(=O)CC(NNc3ncc(Cl)cc3Cl)C2=O)cc1 (configuration not stated),.,5,-5%,-1.6,-17,
Oc1ccc(C=NCCc2ccccc2)cc1,.,-5,.,-1.6,.,
COC(=O)c1ccccc1NC(=O)Cn1cc(Br)cn1,-27,4,12%,4.2,-1,
O=C(CSc1ccccn1)Nc1ccc(N2CCOCC2)cc1,.,-4,-3%,-2.0,15,

# Structures above that have an NH in an aromatic ring (7):
SMILES,YopH inh,Mtb bLac sens,Mtb growth,RecA intein inh,Arbovirus inh,others
CC(C)CCN(C(=O)CCCSc1nc2ccccc2[nH]1)c1c(N)n(Cc2ccccc2)c(=O)[nH]c1=O,.,-10,.,1.8,.,
COc1ccc(Nc2nnc(Cc3ccc(Cl)cc3)c(=O)[nH]2)c(OC)c1,-26,-4,0%,8.1,-6,Arbovirus inh repeat=16
O=C(CSc1nnc2c(n1)[nH]c1ccccc12)OCc1ccccc1,-12,90,55%,2.6,5,
Cc1ccccc1NC(=O)C(=O)NCCc1c[nH]c2ccccc12,.,-2,6%,1.5,5,
Cc1ccc(S(=O)(=O)N2CCN(Cc3nc4sc(C)c(C)c4c(=O)[nH]3)CC2)cc1,-16,11,2%,0.4,-16,
Fc1ccc(-c2n[nH]c(=S)n2Cc2ccccc2)cc1,.,3,.,0.3,.,
CC(C)CCNC(=O)CCCn1c(=O)[nH]c2ccc(Br)cc2c1=O,-20,3,-11%,-1.3,-8,

# The list is partial (hit frequency here may not be typical).
